# Source: PubChem BioAssay
# Six1-Eya2 blk – qHTS Assay for Inhibitors of the Six1/Eya2 Interaction; Homeobox protein SIX1 (Homo sapiens) + Protein phosphatase EYA2 (Homo sapiens), …; AlphaScreen GST-Six1/His-Eya2 binding, biochemical; active compounds read low; control for the full effect not named in the record; activity change, % (concentration not given with the values); actives 0.56% (n = 360,000); in the data active = activity change below about -65%; inconclusive = about -30% to -65%; inactive = above about -30%; also: % is scaled to controls: 0 for no effect and ±100 for the full control effect
#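 AlphaScreen luminescence read after one hour at 37 °C in darkness. Pin-transferred compounds met GST-Six1 and His-Eya2 protein (5X stock 250 nM/500 nM) plus glutathione donor and Ni-chelate acceptor beads (5X, 50 ug/mL).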
# TRPML1 blocker – qHTS for Inhibitors of the Human Mucolipin Transient Receptor Potential 1 (TRPML1); Mucolipin-1 (Homo sapiens), Q9GZU1; TRPML1-inducible cells, Ca2+ dye fluorescence, FDSS; active compounds read low; inhibition of EC80 agonist-evoked calcium signal; activity change, negative = inhibition, % (concentration not given with the values); actives 0.02% (n = 390,000); in the data active means activity change below about -50%; inconclusive means about -30% to -50%; inactive means above about -30%;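 also: stimulus is agonist 54-4 at its EC80 concentration; % is scaled to controls: 0 for no effect and ±100 for the full control effect; the text of the record puts the active cut at -80%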
# Target sequence (Q9GZU1 whole entry, looked up): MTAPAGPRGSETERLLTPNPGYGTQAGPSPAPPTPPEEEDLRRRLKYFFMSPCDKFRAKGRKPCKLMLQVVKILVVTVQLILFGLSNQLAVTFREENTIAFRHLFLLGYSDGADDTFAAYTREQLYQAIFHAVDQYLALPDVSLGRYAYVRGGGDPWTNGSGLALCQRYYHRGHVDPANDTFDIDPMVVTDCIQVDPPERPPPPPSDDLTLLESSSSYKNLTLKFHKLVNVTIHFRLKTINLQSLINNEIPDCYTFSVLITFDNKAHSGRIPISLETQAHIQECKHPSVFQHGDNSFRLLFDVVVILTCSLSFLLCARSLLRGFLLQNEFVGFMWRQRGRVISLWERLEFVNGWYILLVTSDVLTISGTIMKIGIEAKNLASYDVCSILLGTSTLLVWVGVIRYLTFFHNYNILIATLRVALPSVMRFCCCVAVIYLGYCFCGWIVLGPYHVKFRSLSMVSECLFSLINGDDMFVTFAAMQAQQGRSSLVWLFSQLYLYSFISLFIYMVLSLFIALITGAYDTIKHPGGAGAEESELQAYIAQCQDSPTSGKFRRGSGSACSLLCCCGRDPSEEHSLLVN
#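 Calcium fluorescence in TRPML1-DL cells induced overnight with Tet: a 110 s read after compound pin addition, then a 110 s antagonist read after challenge with 54-4 at 4 uM final (EC80).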
# D2 potentiator – Beta-Arrestin HTS for Positive Allosteric Modulators of the Human D2 Dopamine Receptor: Potentiators; D(2) dopamine receptor (Homo sapiens), P14416; DiscoveRx D2 beta-arrestin cells, luminescence, 90 min; 100% = 57 uM dopamine signal; potentiation, % (test concentration not listed); actives 0.23% (n = 360,000); AID 624464, 2012; active = potentiation of 50% or more; inconclusive = 30% to 50%; inactive = 30% or less;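 also: compound concentration not given in the record; tested on top of an EC20 dose of dopamine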
# Target sequence (P14416 whole entry, looked up): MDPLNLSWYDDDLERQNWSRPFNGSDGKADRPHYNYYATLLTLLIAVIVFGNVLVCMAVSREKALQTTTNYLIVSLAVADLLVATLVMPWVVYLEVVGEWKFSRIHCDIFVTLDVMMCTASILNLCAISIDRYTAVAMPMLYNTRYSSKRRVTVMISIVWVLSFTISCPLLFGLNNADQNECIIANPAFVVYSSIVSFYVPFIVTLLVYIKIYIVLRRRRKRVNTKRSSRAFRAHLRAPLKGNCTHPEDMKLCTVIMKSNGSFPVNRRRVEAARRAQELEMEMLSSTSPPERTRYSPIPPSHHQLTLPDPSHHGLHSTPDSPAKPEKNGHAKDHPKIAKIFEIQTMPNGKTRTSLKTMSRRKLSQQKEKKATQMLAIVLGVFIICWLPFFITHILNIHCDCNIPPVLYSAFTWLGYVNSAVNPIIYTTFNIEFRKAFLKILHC
#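 PathHunter beta-arrestin assay in DiscoveRx D2 cells. Compounds were added with an EC20 of dopamine (50 nM final) for 90 min at 37 deg C. Luminescence was read 1 h after detection reagent, with 57 uM dopamine as the EC100 control.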
# TRPML1 agonist – qHTS for Agonists of the Human Mucolipin Transient Receptor Potential 1 (TRPML1); TRPML1-expressing cells, Ca2+ dye fluorescence, FDSS; host cell line not named in the record; reference of the full effect not given here; activation, % (concentration not given with the values); actives 0.12% (n = 410,000); AID 624414, 2012; in the data active = activation above about 50%; inconclusive = about 30% to 50%; inactive = below about 30%; also: 0% is about no effect; the text of the record puts the active cut at 80%
#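 Calcium fluorescence on an FDSS kinetic reader gave the read-out. Tet-induced TRPML1-DL cells were plated overnight, dye-loaded (Ca8 with quencher, 45-90 min, room temperature, dark), then read 110 s after compound addition, and again 110 s after 4uM final 54-4 (EC80).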
# TRPV1 potentiator – HTS Assay for Compounds that Act as Potentiators of the Vanilloid Receptor 1; Transient receptor potential cation channel subfamily V member 1 (Homo sapiens), Q8NER1; TRPV1-expressing cells, Fluo-8 calcium influx, capsaicin EC20 potentiation; host cell line not named in the record; control for the full effect not named in the record; potentiation, % at 8.33 µM; actives 0.02% (n = 320,000); AID 540277, 2011; active means potentiation above 80%; inconclusive means 30% to 80%; inactive means below 30%; also: 0% is about no effect
#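 Cells expressing TRPV1 were dye-loaded with Fluo-8 and read kinetically: 10 s baseline, 3 min after compound (agonist portion), then 2 min after EC20 capsaicin (allosteric enhancer portion). Calcium-bound dye fluorescence at 480/520 nm.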
# CtBP-E1A blk – qHTS Assay for Inhibitors of the CtBP/E1A Interaction; AlphaScreen GST-E1A/His-CtBP binding, 1536-well; active compounds read low; control for the full effect not named in the record; activity change, % (no concentration beside the values); actives 0.49% (n = 340,000); AID 651724, 2012; in the data active means activity change below about -65%; inconclusive means about -30% to -65%; inactive means above about -30%; also: % is scaled to controls: 0 for no effect and ±100 for the full control effect
#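 Protein mix (5X: 125 nM each GST-E1A, His-CtBP) was incubated with pinned compound 2 h at 37 deg C in dark, in 50 mM Tris pH 8.0 buffer with 300 mM NaCl. Glutathione donor and nickel acceptor beads followed; AlphaScreen signal read after 1 h.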
# * hit, by the source's call; ? = inconclusive; . = no result given.
1: CCOC(=O)C(C)Oc1ccccc1C1NC(=O)NC(C)=C1C(=O)Nc1ccc(C)c(C)c1 (stereo unspecified)
2: Cc1cccc(S(=O)(=O)NCCc2ccccc2)c1
3: O=C(Cn1ccc(C(F)(F)F)n1)NNC(=O)c1cccnc1
4: Cc1csc(SCC(=O)c2cc(C)n(Cc3cccs3)c2C)n1
5: O=C(Nc1ccccc1F)c1ccc(CSc2ncccn2)cc1
6: Cc1onc(-c2ccccc2)c1C(=O)Nc1ccc(S(=O)(=O)NC(C)(C)C)cc1
7: Cc1ccccc1CNC(=O)C(=O)NCCC1CCCCN1S(=O)(=O)c1ccccc1 (stereo unspecified)
8: COc1cccc(C(=O)Nc2nc3ccc(S(C)(=O)=O)cc3s2)c1
9: O=C(CCCN1C(=O)/C(=C\c2ccccc2)SC1=S)Nc1ccc(O)cc1C(=O)O
10: COCCN(C(=O)COC(=O)/C=C/c1ccccc1Cl)c1c(N)n(Cc2ccccc2)c(=O)[nH]c1=O
Assay by compound	1	2	3	4	5	6	7	8	9	10
Six1-Eya2 blk	1	19	3	-24	2	20	-3	1	-19	6
TRPML1 blocker	-8	0	-11	24	-21	-7	5	-10	2	1
D2 potentiator	1	-7	-5	-18	3	10	5	1	6	-5
TRPML1 agonist	3.2	-0.4	-0.7	1.7	0.9	0.4	-0.2	0.6	3.2	-0.1
TRPV1 potentiator	-17	-3	1	-7	-21	-29	-18	4	-13	-12
CtBP-E1A blk	-2	-17	5	-18	4	1	6	-6	.	0

11: CCCCn1c(N)c(N(CCOC)C(=O)c2cccc(S(=O)(=O)N3CCCCCC3)c2)c(=O)[nH]c1=O
12: COc1ccc(C(=O)c2c(NC(C)=O)sc3c2CCN(C(=O)OC(C)(C)C)C3)cc1
13: O=C(Oc1ccc2c(=O)c(Oc3ccc4ccccc4c3)coc2c1)c1ccco1
14: Cc1c(C2(O)CCCCC2)[nH]c2cc(C(F)(F)F)ccc12
15: CC(=O)Nc1cccc(C(=O)N2CCC(n3nccc3NC(=O)CC(C)C)CC2)c1
16: O=C(COc1ccc(/C=N/NS(=O)(=O)c2ccccc2)cc1)Nc1ccc(F)cc1
17: O=c1[nH]c2ccccc2nc1C(Nc1ccccc1)c1ccccc1 (stereo unspecified)
18: COc1ccc(NC(=O)CN2CCN(CC(=O)Nc3ccccc3Cl)CC2)cc1
19: CN(CCN1CCOCC1)Cc1nc(-c2ccc3c(c2)OCO3)no1
20: O=c1[nH]c(CN2CCN(S(=O)(=O)c3ccc4c(c3)OCCO4)CC2)nc2sc3c(c12)CCCC3
Assay by compound	11	12	13	14	15	16	17	18	19	20
Six1-Eya2 blk	1	-14	-5	-1	10	2	-1	5	4	-5
TRPML1 blocker	12	15	1	-6	-6	-4	.	22	-14	-24
D2 potentiator	-5	4	-15	-4	2	5	-8	6	-7	-5
TRPML1 agonist	0.2	3.1	1.5	-0.5	-0.2	1.2	.	1.7	-0.8	0.3
TRPV1 potentiator	19	4	-5	.	-12	-9	-7	10	21	12
CtBP-E1A blk	3	-11	-6	-4	3	6	7	-17	.	-17

21: CC(=O)/C=C(\C)NCCNc1c(F)c(F)c(CO)c(F)c1F
22: Cc1cc(OCC(=O)NCCCN2CCCC2=O)c2c(C)c(C)c(=O)oc2c1
23: CN(C)Cc1c[nH]c2nccnc12
24: CC(C)(C)CN1CCN(Cc2cc3ccccc3[nH]2)CC1CCO (stereo unspecified)
25: NNC(=O)CCn1c2ccccc2c2ccccc21
26: COc1ccccc1CNC(=O)c1ccc2nc(C)c(N(C)Cc3ccc(NC(C)=O)cc3)n2c1
27: COc1ccc(S(=O)(=O)N2CCCCCC2)cc1NC(=O)Cc1ccc(OC)c(OC)c1
28: Cc1ccc(CCNC(=O)CN2CCN(Cc3ccccc3F)C2=O)cc1
29: CCC1(C)Cc2nc(Cl)c(C#N)cc2CO1 (stereo unspecified)
30: FC(F)(F)c1cccc(-n2cc(-c3ccccc3)[nH]c2=S)c1
Assay by compound	21	22	23	24	25	26	27	28	29	30
Six1-Eya2 blk	5	-4	1	-10	5	3	3	-5	3	-24
TRPML1 blocker	18	4	19	-1	-15	89	9	24	-15	3
D2 potentiator	3	5	-4	-3	-8	0	5	-1	1	-16
TRPML1 agonist	0.4	1.3	0.2	1.4	-0.2	3.3	0.9	-0.5	5.0	-0.7
TRPV1 potentiator	16	4	.	-7	-5	.	.	-12	-4	4
CtBP-E1A blk	7	0	1	0	.	-3	-3	4	7	-16

# Compound profiles, as listed above. Order of screens: Six1-Eya2 blk | TRPML1 blocker | D2 potentiator | TRPML1 agonist | TRPV1 potentiator | CtBP-E1A blk
# Cc1ccc(CCNC(=O)CN2CCN(Cc3ccccc3F)C2=O)cc1 across the screens: -5 | 24 | -1 | -0.5 | -12 | 4
# CN(C)Cc1c[nH]c2nccnc12 across the screens: 1 | 19 | -4 | 0.2 | . | 1
# CC(C)(C)CN1CCN(Cc2cc3ccccc3[nH]2)CC1CCO (stereo unspecified) across the screens: -10 | -1 | -3 | 1.4 | -7 | 0
# COc1ccccc1CNC(=O)c1ccc2nc(C)c(N(C)Cc3ccc(NC(C)=O)cc3)n2c1 across the screens: 3 | 89 | 0 | 3.3 | . | -3

# The list goes on:
31: Cc1c(C(=O)N2CCOCC2)sc2nc(-c3ccccc3)cn12
32: Cc1ccc2c(COC(=O)c3ccccc3Br)cc(=O)oc2c1
33: CC1(CC(=O)N/N=C/c2cc(Br)c(O)cc2O)OCCO1
34: COc1ccccc1-c1nc(-c2ccc(C)nc2OC)no1
35: O=C(c1ccc(Cl)cc1)N1CCN(CCOc2ccccc2)CC1
36: Cc1cc([N+](=O)[O-])nn1CC(=O)NCc1nc2ccccc2[nH]1
37: CCN(CC)c1ccc2c(C)c(CN3CCOCC3)c(=O)oc2c1
38: Cc1cc(NC(=O)CSc2nnc(-c3ccccc3)c(-c3ccccc3)n2)no1
39: COc1cccc(NC(=O)c2ccccc2N2C(=O)C3C4C=CC(C4)C3C2=O)c1 (stereo unspecified)
40: C[C@H]1CC[C@@]2(O[C@H](CCO)C[C@@H](O)[C@@H]2O)O1
Assay by compound	31	32	33	34	35	36	37	38	39	40
Six1-Eya2 blk	-3	14	?	11	0	12	29	-11	-1	-15
TRPML1 blocker	2	-8	0	27	?	?	10	-3	-9	-8
D2 potentiator	-20	6	?	-23	-2	-8	-38	-2	-14	-4
TRPML1 agonist	-0.5	0.9	-0.2	3.5	0.7	-0.7	2.6	2.2	-0.3	-0.5
TRPV1 potentiator	-6	9	4	5	5	8	0	-10	-1	15
CtBP-E1A blk	0	4	?	-7	0	-3	11	-20	12	-17

41: CCOC(=O)c1[nH]c2ccc(OC)cc2c1NC(=O)NC(C)C
42: CCC(C)NC(=O)c1ccccc1NC(=O)c1ccccc1N(C)S(C)(=O)=O (stereo unspecified)
43: O=C(O)Cn1c(SCCOc2ccccc2F)nc2ccccc21
44: CCC(=O)NCCc1nc2cc(NC(=O)c3ccc(OC)cc3)ccc2n1C
45: COc1ccc(-c2c(C)n([O-])c3c([n+]2=O)CCCC3)c(OC)c1
46: CC(=O)c1c(C)[nH]c(C(=O)OCC(=O)Nc2cc(S(=O)(=O)N3CCCC3)ccc2Cl)c1C
47: CC1CCN(CC(=O)Nc2ccc(S(=O)(=O)N3CCCCC3)cc2)CC1
48: CCOC(=O)N1CCN(C(=O)c2cn(CC)c3ccc(S(=O)(=O)N4CCOCC4)cc3c2=O)CC1
49: COc1cccc(-c2cccc(NC(=O)C3CCN(C4CCC4)CC3)c2)c1
50: Cc1sc(NC(=O)Cn2cnnn2)nc1-c1ccc(Cl)cc1
Assay by compound	41	42	43	44	45	46	47	48	49	50
Six1-Eya2 blk	-3	5	-5	6	6	-19	-1	-4	-3	-6
TRPML1 blocker	1	-16	16	2	-11	14	13	-2	11	2
D2 potentiator	-8	9	-12	5	-25	-16	-4	-15	-15	-12
TRPML1 agonist	-0.7	0.1	-0.9	-0.1	0.2	0.1	0.5	-0.3	0.3	0.7
TRPV1 potentiator	-5	23	4	-3	-5	3	18	-11	-25	-16
CtBP-E1A blk	3	-3	5	2	2	5	-17	.	9	0

51: CCOC(=O)c1c(NC(=O)C2C3C=CC(CC3)C2C(=O)O)sc(C)c1C (stereo unspecified)
52: COCCn1c(C)cc(/C=C(\C#N)C(=O)OCC(=O)Nc2ccc(S(N)(=O)=O)cc2)c1C
53: C=CCOc1ccccc1CN(C(=O)CCl)c1ccc2c(c1)OCO2
54: CCc1nnc(N/N=C\c2ccc(OC(C)=O)c(OC)c2)n1N
55: O=C(CSC(=S)N1CCCC1)N1CCN(S(=O)(=O)c2cccc([N+](=O)[O-])c2)CC1
56: O=C1CN=C(Nc2ccccc2Cl)N1c1ccccc1
57: CC1C/C(=N\NC(=O)c2ccc(NS(=O)(=O)c3ccc(Br)cc3)cc2)CC(C)(C)C1 (stereo unspecified)
58: Cc1ccccc1N1CC(C(=O)Nc2ccncc2)CC1=O (stereo unspecified)
59: COc1ccc2[nH]c3c(c2c1)CCN1C(=O)N([C@@H](C)C(=O)NC2CCN(Cc4ccccc4)CC2)C(=O)[C@]31C
60: COc1ccc(C(C(=O)NC(C)(C)C)N(CCC(C)C)C(=O)CCC(=O)Nc2cc(C)on2)cc1 (stereo unspecified)
Assay by compound	51	52	53	54	55	56	57	58	59	60
Six1-Eya2 blk	6	1	-9	-3	11	-4	5	0	-20	-16
TRPML1 blocker	-22	7	-13	-9	6	4	-12	-16	.	3
D2 potentiator	-15	3	-3	-3	18	1	3	7	-61	-7
TRPML1 agonist	0.1	0.7	0.6	1.3	0.3	-0.5	-0.7	-0.8	.	-0.4
TRPV1 potentiator	1	3	-10	6	-21	-1	-5	5	4	-15
CtBP-E1A blk	10	4	0	?	6	3	2	5	-15	-3

61: CCOc1ccc(/C=C2\SC(=S)N(CC(=O)N(CCO)C(C)(C)C)C2=O)cc1
62: CCOC(=O)Cc1csc(NC(=O)CCN2C(=O)c3ccccc3C2=O)n1
63: CC(C)(C)c1ccc(C(=O)c2c[nH]c(C(=O)NCCc3ccccn3)c2)cc1
64: O=C(C1CCCN1S(=O)(=O)c1cccc2nsnc12)N1CCCCC1 (stereo unspecified)
65: CCCCc1ccc(NC(=O)Nc2cc(C)nn2C)cc1
Assay by compound	61	62	63	64	65
Six1-Eya2 blk	-11	-9	-7	8	6
TRPML1 blocker	-8	8	15	19	1
D2 potentiator	-5	-5	0	-5	-4
TRPML1 agonist	0.3	-0.8	0.1	-0.6	-1.0
TRPV1 potentiator	3	-8	8	27	-5
CtBP-E1A blk	-4	-9	-14	9	-5
